rRNA inh HTS – reduced GFP signal of wild-type E. coli, primary screen, bacterial rRNA inhibitor project, GFP/RFP fluorescence, OD600, single point; E. coli WT GFP vs humanized-ribosome RFP mutants, 24 h; hits give low values; DMSO median 0, no signal -100; AID 720706, 2013; actives 1.6% (n = 350,000); GFP signal change (wild-type ribosome), % (no concentration beside the values);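 active = significant combined selectivity score with lowered wild-type GFP, culture density cut under 30%, mutant RFP and density less affected; inactive = any of these conditions unmet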; note: one replicate is shown; some compounds called inactive have numbers as strong as hits
MLL AF4-AF9 inh – inhibitors of AF4 peptide binding to AF9, primary screen, biochemical, AlphaScreen, biotin-AF4 peptide, FLAG-AF9, single point. Protein AF-9 (Homo sapiens), P42568. inhibition, % at 10 µM. actives 0.47% (n = 350,000);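 active = every replicate reaching a set inhibition limit, whatever the replicate mean, cut at about 25% in these data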;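 note: 0% = plate neutral control median and 100% = total signal loss; the record names both 10 and 1 µM as test concentration; the first replicate is given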
Target sequence (P42568 whole entry, looked up): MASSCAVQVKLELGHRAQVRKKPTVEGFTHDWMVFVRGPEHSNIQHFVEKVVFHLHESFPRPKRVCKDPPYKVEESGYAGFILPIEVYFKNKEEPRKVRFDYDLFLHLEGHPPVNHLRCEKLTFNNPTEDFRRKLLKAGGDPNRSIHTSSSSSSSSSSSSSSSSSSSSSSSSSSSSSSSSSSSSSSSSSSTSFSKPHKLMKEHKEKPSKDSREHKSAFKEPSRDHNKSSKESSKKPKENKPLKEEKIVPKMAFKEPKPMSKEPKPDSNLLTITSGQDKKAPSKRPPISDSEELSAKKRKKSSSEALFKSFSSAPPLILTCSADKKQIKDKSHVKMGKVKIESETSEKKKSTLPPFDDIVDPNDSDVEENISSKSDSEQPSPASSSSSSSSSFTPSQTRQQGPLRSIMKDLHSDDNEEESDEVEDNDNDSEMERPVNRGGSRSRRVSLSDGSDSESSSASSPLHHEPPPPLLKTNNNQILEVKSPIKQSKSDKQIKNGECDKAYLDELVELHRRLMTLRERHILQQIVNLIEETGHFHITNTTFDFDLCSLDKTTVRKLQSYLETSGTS
rRNA inh HTS OD600 – further read-out of rRNA inh HTS, marked with its call; OD600 change, %; measured here: OD600 growth;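 optical density of the mix in the first replicate; 0 = DMSO median and -100 = no signal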
rRNA inh HTS RFP – also measured in rRNA inh HTS; calls as there; RFP signal change, %; measured here: RFP humanized mutant strains;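 first replicate; 0 = DMSO median and -100 = no signal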
* = called active by the depositor. Not all compounds are listed; rates above refer to the full screens.

MLL AF4-AF9 inh	rRNA inh HTS	rRNA inh HTS RFP	rRNA inh HTS OD600	Compound
-0.2	-5	4.1	-3	O=C(C[C@@H]1C=C[C@H](NC(=O)c2ccc(F)cc2)[C@H](CO)O1)NCCc1ccncc1
-1.2	-6	-7.7	-13	COc1ccc(S(=O)(=O)N2CCCCC2c2cc(C(=O)Nc3ccc(OC)cc3C)no2)cc1 (configuration not stated)
1.2	0	0.0	-2	COc1ccc(CN2C[C@@H](O)COC[C@H]3O[C@@H](CC(=O)NCc4ccccc4Cl)CC[C@@H]32)cc1
4.6	-7	3.1	8	O=C(c1cccc(F)c1)N1CC[C@H]2[C@H](CO)Nc3ccc(C#Cc4cccc(F)c4)cc3[C@H]21
1.4	1	1.0	-4	CCCC#Cc1ccc2c(c1)O[C@@H](CN(C)C(=O)c1cccnc1)[C@@H](C)CN([C@@H](C)CO)S2(=O)=O
-2.4	2	1.1	1	CCC(=O)N1C[C@H](O)COC[C@@H]2O[C@@H](CC(=O)NCc3ccccc3Cl)CC[C@H]21
-0.2	1	-2.1	11	O=C(C[C@H]1C[C@H]2c3cc(NC(=O)NC4CCCC4)ccc3O[C@H]2[C@@H](CO)O1)NC1CCCCC1
-3.0	5	-7.4	2	CCCCN(C(=O)c1cc(CN2C(=O)c3ccccc3C2=O)ccc1OC)c1c(N)n(CC(C)C)c(=O)[nH]c1=O

Later entries:
MLL AF4-AF9 inh	rRNA inh HTS	rRNA inh HTS RFP	rRNA inh HTS OD600	Compound
-1.8	-4	-0.8	-1	O=C(C[C@@H]1C[C@H]2c3cc(NC(=O)c4ccc5c(c4)OCO5)ccc3O[C@H]2[C@@H](CO)O1)NCC1CC1
-2.7	1	2.9	-11	C[C@@H]1CN([C@@H](C)CO)C(=O)c2cc(NC(=O)Cc3ccccc3)ccc2O[C@H]1CN(C)Cc1ccc(Cl)c(Cl)c1
-1.2	0	1.8	2	CC(=O)Nc1cc(-c2ccc(F)cc2)cn2c(-c3ccc(S(C)(=O)=O)cc3)cnc12
-3.1	-1	-0.8	8	COc1ccc(S(=O)(=O)Nc2ccc3c(c2)C(=O)N([C@H](C)CO)C[C@@H](C)[C@H](CN(C)C(=O)Nc2c(C)noc2C)O3)cc1
-1.2	-1	-1.1	-2	O=C(C[C@@H]1C=C[C@H](NC(=O)Nc2ccc3c(c2)OCO3)[C@@H](CO)O1)NCc1ccc(Cl)cc1
-3.2	6	-0.7	16	C[C@@H]1CCCCO[C@@H](CN(C)Cc2ccc(C(F)(F)F)cc2)[C@@H](C)CN([C@H](C)CO)C(=O)c2cc(NS(=O)(=O)c3ccc(Cl)cc3)ccc2O1
-0.7	3	-3.6	8	C[C@H]1CN([C@@H](C)CO)C(=O)c2cc(C#CCN(C)C)cnc2O[C@H]1CN(C)C(=O)Cc1ccccc1
-1.0	4	0.8	3	CO[C@H]1CN(C)C(=O)c2cc(NS(C)(=O)=O)ccc2OC[C@@H](C)N(CC2CC2)C[C@H]1C

3 entries from above, reformatted:
Each structure is followed by: MLL AF4-AF9 inh | rRNA inh HTS | rRNA inh HTS RFP | rRNA inh HTS OD600
> C[C@@H]1CN([C@@H](C)CO)C(=O)c2cc(NC(=O)Cc3ccccc3)ccc2O[C@H]1CN(C)Cc1ccc(Cl)c(Cl)c1
→ -2.7 | 1 | 2.9 | -11
> COc1ccc(S(=O)(=O)Nc2ccc3c(c2)C(=O)N([C@H](C)CO)C[C@@H](C)[C@H](CN(C)C(=O)Nc2c(C)noc2C)O3)cc1
→ -3.1 | -1 | -0.8 | 8
> CC(=O)Nc1cc(-c2ccc(F)cc2)cn2c(-c3ccc(S(C)(=O)=O)cc3)cnc12
→ -1.2 | 0 | 1.8 | 2

Following part
MLL AF4-AF9 inh	rRNA inh HTS	rRNA inh HTS RFP	rRNA inh HTS OD600	Compound
-22	15	2.9	18	CC(C)C[C@@H]1CC2=C(C(=O)OC(C)(C)O2)[C@H](CCc2ccccc2)O1
-2.6	1	-1.0	2	CC(C)NC(=O)Nc1ccc2c(c1)C(=O)N([C@@H](C)CO)C[C@@H](C)[C@H](CN(C)C(=O)Nc1ccc(F)cc1)OCCCC[C@@H](C)O2
-0.7	-2	0.3	1	CC(=O)Nc1cc(-c2ccc(CO)cc2)cn2c(-c3ccc(F)c(Cl)c3)cnc12
0.7	1	0.5	9	CNC[C@@H]1Oc2cc(C#C[C@H](C)O)ccc2S(=O)(=O)N([C@@H](C)CO)C[C@@H]1C
6.8	4	0.4	-2	Cc1ccc(-c2ccc3c(c2)O[C@H](CN(C)C(=O)CN(C)C)[C@H](C)CN([C@H](C)CO)S3(=O)=O)cc1
-1.8	-6	-0.9	2	COc1cccc(C#Cc2ccc([C@@H]3[C@@H](C#N)N[C@@H]3CO)cc2)c1
4.7	1	1.3	-5	CC(C)NC(=O)N(C)C[C@H]1OCCCC[C@@H](C)Oc2ccc(NC(=O)Nc3ccc4c(c3)OCO4)cc2C(=O)N([C@@H](C)CO)C[C@H]1C
-0.7	-3	-0.4	-2	COc1ccc(S(=O)(=O)Nc2cccc3c2O[C@@H](CN(C)C(=O)Nc2ccccc2)[C@@H](C)CN([C@H](C)CO)C3=O)cc1

Continued.
MLL AF4-AF9 inh	rRNA inh HTS	rRNA inh HTS RFP	rRNA inh HTS OD600	Compound
1.2	5	0.7	3	Cc1noc(C)c1S(=O)(=O)N(C)C[C@H]1Oc2ccc(NC(=O)NC(C)C)cc2CC(=O)N([C@@H](C)CO)C[C@H]1C
5.8	14	-2.9	15	CN(C)c1ccc(-c2ccnc3c2CC(C)(C(=O)NCC2CC2)O3)cc1 (configuration not stated)
3.8	-1	-0.1	3	C[C@@H]1CN([C@H](C)CO)C(=O)c2cccc(NS(=O)(=O)c3ccc(F)cc3)c2O[C@H]1CN(C)Cc1ccc(Cl)c(Cl)c1
0.1	1	6.6	-4	COc1ccc2c3c([nH]c2c1)[C@@H](CO)N(C(=O)Cc1ccccc1)CC31CCN(C(=O)Cc2ccccc2)CC1
3.4	-1	5.1	0	COc1ccc2c3c([nH]c2c1)[C@H](CO)N(Cc1ccccc1)CC31CN(C(=O)c2ccccn2)C1
6.3	-10	-5.9	-20	O=C(C1CCCCC1)N1CC(=O)N2[C@@H](CO)[C@@H](c3ccc(-c4ccccc4F)cc3)[C@@H]2C1
-1.4	8	-9.8	-14	O=C(/C=C/c1ccccc1)Nc1cccc(C(=O)NC2CC2)c1
-7.3	1	-2.2	6	O=C(NCC1CC1)[C@@H]1[C@@H](CO)[C@@H]2Cn3c(ccc(-c4cccnc4)c3=O)[C@H]1N2C(=O)C1CCCCC1

More records.
MLL AF4-AF9 inh	rRNA inh HTS	rRNA inh HTS RFP	rRNA inh HTS OD600	Compound
-2.4	1	0.5	6	C[C@@H]1CN([C@@H](C)CO)S(=O)(=O)c2ccc(C#C[C@@H](C)O)cc2O[C@H]1CN(C)C
2.4	2	0.4	15	O=C(C[C@H]1C[C@H]2c3cc(NC(=O)NC4CCCCC4)ccc3O[C@H]2[C@@H](CO)O1)NCCc1ccccc1
2.2	2	-1.0	4	C[C@@H]1CN([C@H](C)CO)S(=O)(=O)c2ccc(C#CC3CCCC3)cc2O[C@@H]1CN(C)C
3.1	-2	0.9	-3	CO[C@@H]1CN(C)C(=O)c2ccc(NC(=O)Nc3ccccc3)cc2OC[C@@H](C)N(C(=O)CC2CC2)C[C@@H]1C
-12	-2	-0.1	1	O=C(C[C@H]1C=C[C@H](NC(=O)Nc2ccccc2)[C@H](CO)O1)NCc1cccc(F)c1
3.1	0	2.1	3	Cc1noc(C)c1S(=O)(=O)N(C)C[C@H]1Oc2c(NC(=O)c3ccc(-c4nccs4)cc3)cccc2C(=O)N([C@H](C)CO)C[C@@H]1C
-0.3	-1	-6.9	0	CC(C)NC(=O)c1cc(C2CCCCN2S(=O)(=O)c2cccs2)on1 (configuration not stated)
-0.9	1	0.1	0	O=C(C[C@H]1CC[C@H](NC(=O)Nc2cc(F)ccc2F)[C@H](CO)O1)Nc1ccccc1

Next section.
MLL AF4-AF9 inh	rRNA inh HTS	rRNA inh HTS RFP	rRNA inh HTS OD600	Compound
2.9	1	1.6	2	COc1ccccc1C#Cc1ccc([C@@H]2[C@@H](CO)N(C(=O)C3CCCCC3)[C@H]2C#N)cc1
-0.7	-5	-2.9	1	C[C@@H]1CCCCO[C@H](CN(C)Cc2ccncc2)[C@@H](C)CN([C@H](C)CO)C(=O)c2cc(NS(=O)(=O)c3cccs3)ccc2O1
1.3	0	-0.6	6	C[C@@H]1CCCCO[C@H](CN(C)C(=O)CCC(F)(F)F)[C@@H](C)CN([C@@H](C)CO)C(=O)c2cc(NS(=O)(=O)c3cn(C)cn3)ccc2O1
-5.1	1	-1.1	1	O=C(C[C@@H]1C=C[C@H](NC(=O)c2ccncc2)[C@H](CO)O1)Nc1ccccc1
1.3	-2	-2.5	15	C[C@H](CO)N1C[C@H](C)[C@@H](CN(C)C(=O)c2ccccc2)Oc2ncc(C#CC3CC3)cc2C1=O
-2.3	-1	-3.5	9	C[C@@H]1CN([C@H](C)CO)S(=O)(=O)c2ccc(-c3cccc(C#N)c3)cc2O[C@@H]1CN(C)C
-3.3	4	-1.9	6	C[C@H]1CCCCO[C@H](CN(C)Cc2ccc(C(=O)O)cc2)[C@@H](C)CN([C@@H](C)CO)C(=O)c2cc(NS(C)(=O)=O)ccc2O1
-0.2	-1	-0.7	5	COc1ccc(CN(C)C[C@H]2Oc3ccc(NC(=O)CCCN(C)C)cc3C(=O)N([C@H](C)CO)C[C@H]2C)cc1

2 of the compounds above, tab-delimited.
SMILES	MLL AF4-AF9 inh	rRNA inh HTS	rRNA inh HTS RFP	rRNA inh HTS OD600
C[C@@H]1CCCCO[C@H](CN(C)C(=O)CCC(F)(F)F)[C@@H](C)CN([C@@H](C)CO)C(=O)c2cc(NS(=O)(=O)c3cn(C)cn3)ccc2O1	1.3	0	-0.6	6
COc1ccccc1C#Cc1ccc([C@@H]2[C@@H](CO)N(C(=O)C3CCCCC3)[C@H]2C#N)cc1	2.9	1	1.6	2

Carrying on:
MLL AF4-AF9 inh	rRNA inh HTS	rRNA inh HTS RFP	rRNA inh HTS OD600	Compound
-18	-2	-3.4	0	CCCNC(=O)N1CCC2(CC1)CN(Cc1ccc(F)cc1)[C@@H](CO)c1[nH]c3cc(OC)ccc3c12
3.1	-5	8.0	0	O=C(c1ccccc1)N1CC[C@@H]2[C@H]1c1cc(C#CC3CCCCC3)ccc1N[C@@H]2CO
-1.7	0	-0.7	4	C[C@@H]1CN([C@H](C)CO)C(=O)c2cc(NS(=O)(=O)c3cn(C)cn3)ccc2O[C@H]1CN(C)Cc1ccc2c(c1)OCO2
-10	2	-2.9	3	O=C(C[C@H]1CC[C@@H]2[C@H](COC[C@H](O)CN2C(=O)c2ccccn2)O1)N1CCN(c2ccccc2)CC1
0.9	6	2.1	13	COc1ccc(CC(=O)OCC(=O)Nc2ccc3[nH]c(=O)[nH]c3c2)cc1OC
-0.9	-2	33	-9	C/C=C/c1cccc(-c2nc(C(=O)NCc3ccccc3)cc3c2[C@@H](CCO)N([S@](=O)C(C)(C)C)C3)c1
0.9	-16	1.9	-7	COc1cccc(CNC(=O)[C@@H]2CCCN2C(=O)[C@H]2CCCCN2C(=O)c2ccc(Cl)cc2)c1
1.6	-3	3.3	-15	C[C@H]1CN([C@@H](C)CO)S(=O)(=O)c2ccc(-c3ccccc3F)cc2O[C@H]1CN(C)Cc1cncnc1

Continued.
MLL AF4-AF9 inh	rRNA inh HTS	rRNA inh HTS RFP	rRNA inh HTS OD600	Compound
-3.0	-2	-2.2	0	C[C@@H]1CN([C@H](C)CO)C(=O)c2cc(NC(=O)Nc3ccccc3)ccc2O[C@@H](C)CCCCO[C@@H]1CN(C)S(=O)(=O)c1cn(C)cn1
0.3	4	-2.9	7	CCCNC(=O)N1CCC2(CC1)CN(C(=O)c1cccnc1)[C@@H](CO)c1[nH]c3cc(OC)ccc3c12
2.0	-5	4.4	0	COc1ccccc1-c1cnc2c(c1)C(=O)N([C@H](C)CO)C[C@H](C)[C@H](CN(C)Cc1cccc(F)c1)O2
-3.3	-6	2.5	1	CC1(C)OC(=O)C2=C(C[C@@H](CCC(F)(F)F)O[C@H]2c2ccc(F)cc2)O1
-0.1	3	-0.8	-5	Cc1cc(C(=O)Nc2ccc3c(c2)C(=O)N(C)[C@@H]2CC[C@@H](CC(=O)NC4CCCC4)O[C@H]2CO3)no1
-1.1	3	1.6	3	CC(=O)N1CCCCN2[C@@H](CO)[C@H](c3ccc(Br)cc3)[C@@H]2C1
5.3	0	0.1	5	COc1ccc(NC(=O)Nc2ccc3c(c2)CC(=O)N([C@H](C)CO)C[C@@H](C)[C@H](CN(C)CC2CCCCC2)O3)cc1
0.3	15	0.7	12	Nc1ncnc2c1ncn2[C@@H]1O[C@H](C(=O)N[C@H]2c3ccccc3C[C@H]2OC=O)[C@@H](O)[C@H]1O
1.6	1	1.1	-6	C/C=C/c1ccc([C@H]2[C@@H](CO)N(CCC(F)(F)F)C23CN(C(C)=O)C3)cc1
-2.2	1	0.4	8	CN(C)C(=O)C[C@H]1CC[C@@H](NC(=O)NC2CCCCC2)[C@H](CO)O1
1.5	-5	3.9	-20	CCc1nc2ccc(C(=O)N(C)Cc3ccccc3)cn2c1N(CC)Cc1cccc(Br)c1

Screens (PubChem BioAssay)
